Assay outcomes: PubChem BioAssay, several laboratories
Bfl-1 A1 inh = inhibitors of the anti-apoptotic protein A1, read as caspase activation. MEF A1-2A-BIM cells, Caspase-Glo 3/7 luminescence, 3 h; percent of clofoctol response, vehicle zero. caspase activation, % (concentration not given with the values). 330,000 compounds, 0.066% hits;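 active = over half of replicate activation scores above 10%, or exactly half above 10 with the replicate mean above 10; inconclusive = replicate mean below 10 yet half the replicates above 10; inactive = over half of replicates below 10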;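 note: wells of about 30 µL received 50 nL stock; many hits fall short of the cut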
T cruzi repl = blocks replication of Trypanosoma cruzi; inhibition, % (test concentration not listed); AID 1885; 300,000 compounds, 1.4% hits; T. cruzi beta-gal in NIH3T3, luminescence, 90 h;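 active = mean inhibition across valid replicates above about 55%, limit read from the data; inconclusive = mean below that limit but half or more replicates reach it; inactive = mean below it, under half of replicates reach it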;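 note: signal also drops with host cell toxicity which is not excluded here; 0% = plate median of DMSO wells and 100% = zero luminescence signal; higher percent means less beta-gal luminescence so fewer parasites; stock transfer was 50 nL into about 50 µL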
Beta cell apopt = beta cell apoptosis inhibition; INS-1E cytokine-induced death, ATP luminescence, 48 h; percent of positive-control rescue, neutral wells zero; protection from apoptosis, % (test concentration not listed); 300,000 compounds, 0.8% hits;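 active = all replicates at 75% or more, or half of them and the mean; inconclusive = half reach 75% but not the mean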;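 note: 0% = cytokine-treated negative control wells and 100% = positive control rescue; higher means more ATP so stronger rescue from cytokine killing; wells of about 40 µL received 100 nL stock; the first replicate is given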
Calb FLC = affects C. albicans growth with fluconazole; C. albicans CaCi-2 (fluconazole-resistant clinical isolate) + fluconazole, Alamar Blue growth, 48 h; growth inhibition, % (test concentration not listed); 300,000 compounds, 0.57% hits; AID 1979;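 active = most replicates above 75%; inconclusive = exactly half above 75%; inactive = most below 75%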;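 note: all wells also contain fluconazole at 8 µg/ml as a sub-toxic cotreatment; 0% = median of DMSO wells and 100% = median of geldanamycin control wells; wells of about 8 µL received 7.5 nL stock; the first replicate is given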
MLL AF4-AF9 inh = inhibitors of human MLL-AF4/AF9 interaction; AlphaScreen, biotin-AF4 peptide binding to FLAG-AF9; inhibition, % at 10 µM; 350,000 compounds, 0.47% hits;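 active = every replicate reaching a set inhibition limit, whatever the replicate mean, cut at about 25% in these data; inconclusive = mean inhibition reaches that limit but some replicates miss it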;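 note: 0% = plate neutral control median and 100% = total signal loss; the record names both 10 and 1 µM as test concentration; the first replicate is given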
Target sequence (P42568 whole entry, looked up): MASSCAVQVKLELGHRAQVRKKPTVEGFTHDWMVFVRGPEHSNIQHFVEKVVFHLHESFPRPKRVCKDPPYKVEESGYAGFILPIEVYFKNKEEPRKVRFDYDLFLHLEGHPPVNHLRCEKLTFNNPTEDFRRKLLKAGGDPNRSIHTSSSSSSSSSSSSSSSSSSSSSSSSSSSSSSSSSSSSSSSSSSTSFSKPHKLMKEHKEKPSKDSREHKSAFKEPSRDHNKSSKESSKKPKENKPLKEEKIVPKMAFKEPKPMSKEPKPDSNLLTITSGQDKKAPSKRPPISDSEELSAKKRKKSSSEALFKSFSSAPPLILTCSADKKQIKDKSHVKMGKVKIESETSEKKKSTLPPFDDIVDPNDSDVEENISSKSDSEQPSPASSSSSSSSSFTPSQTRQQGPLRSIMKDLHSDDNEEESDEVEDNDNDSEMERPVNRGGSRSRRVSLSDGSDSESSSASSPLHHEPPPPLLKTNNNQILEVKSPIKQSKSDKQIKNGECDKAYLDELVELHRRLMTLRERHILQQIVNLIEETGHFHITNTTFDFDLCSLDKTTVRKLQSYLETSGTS
LANA-H2B inh = blocks KSHV LANA binding to histone H2A/H2B; cell-free LANA-H2A/H2B peptide, fluorescence polarization; inhibition, % (no concentration beside the values); 320,000 compounds, 0.6% hits; AID 2629; in the data active = inhibition mostly above about 10%, no sharp cut-off; inactive = mostly below about 6.7%;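 note: stock transfer was 7.5 nL into about 10 µL; 0% = median of vehicle wells and 100% = median of positive control wells; one replicate is shown; the record names a cut of 25% in any replicate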
RanGTP-Impb inh = inhibitors of RanGTP-importin-beta interaction, primary screen, biochemical, FRET, CFP-Ran, YFP-importin-beta, homogeneous; cell-free CFP-Ran/YFP-importin-beta FRET ratio; inhibition, % (no concentration beside the values); 300,000 compounds, 1.1% hits;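 active = most replicates above 15%; inconclusive = exactly half above 15%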;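 note: 0% = DMSO wells and 100% = Ran loaded with GDP instead of GTP; wells of about 40 µL received 100 nL stock; the first replicate is given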
Vif A3G = HIV-1 Vif–A3G interaction blockers – biochemical, TR-FRET, GST-Vif 1-94, biotin-A3G peptide, dose response retest, primary screen (AID 1117319). TR-FRET GST-Vif / biotin-A3G peptide binding; higher % means a stronger effect; test concentration not given here; strong numbers were not always called active. inhibition, %; hits with a dose series show IC50 in µM. 260,000 compounds, 0.57% hits;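 active = above the screen mean plus three standard deviations and confirmed in dose response; inconclusive = results disagree or hit not tested in dose response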;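 note: Vif residues 1-94 fused to GST binding biotinylated APOBEC3G peptide 110-148; 0% = full assay without inhibitor and 100% = GST in place of GST-Vif; retest series ran down from 100 µM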
* = called active by the depositor; ? = inconclusive; nt = no result given; & = joins results of further samples.

SMILES	Bfl-1 A1 inh	T cruzi repl	Beta cell apopt	Calb FLC	MLL AF4-AF9 inh	LANA-H2B inh	RanGTP-Impb inh	Vif A3G
CCC(C)(C(=O)NC1CCCCC1)N(C)C(=O)c1ccc2c(c1)OCO2 (stereo not drawn)	0.9	-1	-4	-5	nt	-0.6	1.2	13%
Cc1cccc(NC(=O)CN2C(=S)NC(C)(C)CC2C)c1C (stereo not drawn)	0.8	-8	-1	?	nt	-6.7	2.2	nt
COc1ccccc1OCC(=O)NCc1nc(-c2ccccc2)no1	-0.1	-13	0	4	-0.9	1.1	-0.2	9%
O=c1nc2n(c3c1oc1ccccc13)Cc1ccccc1-2	nt	15	nt	-2	-4.3	-1.6	1.2	7%
Cc1ccc(-n2nnnc2CNC(=O)c2ccc(Br)o2)cc1C	0.7	-6	0	5	0.2	-1.9	-3.4	nt
Nc1ccccc1SC1CC(=O)N(c2ccc3c(c2)OCCO3)C1=O (stereo not drawn)	1.6	0	1	-2	3.0	-3.0	3.6	-1%
O=C(Cc1ccc(-n2cccc2)cc1)NC1CCCCC1	3.8	17	-5	-7	nt	-5.7	1.3	3%
COc1ccc(Cn2nnnc2C(c2ccccc2OC)N2CCC(C(N)=O)CC2)cc1 (stereo not drawn)	0.4	1	-3	12	nt	16	2.5	-2%&-2%
COC(=O)C(CC(=O)Nc1cc(C)ccc1C)Nc1ccccc1OC (stereo not drawn)	0.9	-18	-5	-2	nt	7.8	5.5	?
CCC(c1nnnn1Cc1ccco1)N1CCC(C(N)=O)CC1 (stereo not drawn)	0.3	-2	-3	-9	nt	3.2	?	14%
Cc1ccc(C)c(S(=O)(=O)N2CCN(C(=O)Cc3ccccc3)CC2)c1	-1.1	4	-1	8	4.8	-0.9	-3.4	-3%
COc1cccc(C2c3[nH]c4ccccc4c3CCN2Cc2cccc(C)n2)c1 (stereo not drawn)	0.5	34	3	15	16	1.7	5.6	2%
NC(=O)[C@@H]1CCCN1Cc1c(C(=O)N2CCN(C3CCCCC3)CC2)nc2ccccn12	1.9	-11	-2	7	2.8	3.3	112*	2%
Nc1nc(SCn2nnc3ccccc3c2=O)n[nH]1	-0.1	0	0	-6	-2.9	1.9	-2.8	nt
Cn1cccc1-c1cc(C(=O)N/N=C/c2cc(Br)ccc2O)[nH]n1	0.6	9	21	33	2.3	-7.9	3.6	nt
CSC1=N/C(=C\c2ccc(C)cc2)C(=O)S1	-0.8	-11	-13	-7	nt	3.2	11	5%
CCN(CC(=O)Nc1ccc(N2CCOCC2)cc1)C(=O)c1ccc(C(F)(F)F)cc1	-0.4	-25	-1	-4	-3.3	3.9	-1.8	-2%
COc1ccccc1OCC(=O)NNC(=O)CSC(=S)N1CCCC1	-0.2	nt	-2	nt	-3.3	nt	nt	1%
CC1CCN(C(=O)CSc2nc3ccccc3s2)CC1	0.2	15	-6	7	nt	-5.9	28*	?
COc1ccc(NC(=O)CN(C)C2CCCCC2)cc1Cl	-0.1	11	-9	4	4.7	3.0	-2.7	nt

The closing 2 entries of the part before are carried over, then new ones follow.
SMILES	Bfl-1 A1 inh	T cruzi repl	Beta cell apopt	Calb FLC	MLL AF4-AF9 inh	LANA-H2B inh	RanGTP-Impb inh	Vif A3G
CC1CCN(C(=O)CSc2nc3ccccc3s2)CC1	0.2	15	-6	7	nt	-5.9	28*	?
COc1ccc(NC(=O)CN(C)C2CCCCC2)cc1Cl	-0.1	11	-9	4	4.7	3.0	-2.7	nt
O=C(NN1C(=O)c2ccccc2NC12CCCCC2)c1ccccc1	0.9	-3	12	?	-0.2	-15	0.6	-14%
COc1ccc(NC(=O)Nc2ccc3c(c2)C(=O)N([C@H](C)CO)C[C@H](C)[C@@H](CN(C)S(=O)(=O)c2cccs2)O3)cc1	0.0	nt	-4	nt	2.9	-1.6	nt	nt
CCOc1cc(CNc2ccc(N3CCN(C(C)=O)CC3)cc2)cc(Br)c1OC	1.1	-3	-1	-10	nt	nt	0.5	?
Nn1c(SCc2ccc(C(=O)O)cc2)nnc1-c1ccc(Cl)cc1Cl	0.4	-7	-1	8	-5.6	3.7	6.0	-2%
C/C(O)=C(/C#N)c1nc2ccccc2[nH]1	0.0	-8	-8	3	nt	-0.9	3.0	5%
Cc1snc(SCC(=O)c2ccc(Cl)cc2)c1C#N	-1.5	15	-3	-32	nt	-5.9	3.8	-5%
CC(OC(=O)CCCN1C(=O)c2ccccc2C1=O)C(=O)Nc1ncc(Cl)cc1Cl (stereo not drawn)	0.8	6	1	7	nt	-2.5	-4.3	0%
O=C(COC(=O)c1ccc([N+](=O)[O-])o1)NCCc1ccccc1	0.3	nt	3	nt	-1.1	4.2	nt	nt
Cn1c(C2=C(O)CN(c3ccc4c(c3)OCCO4)C2=N)nc2ccccc21	-1.0	6	-3	29	-18	-1.9	-0.5	-8%
Cc1ccc(NC(=O)NC(=O)CN2C(=O)NC3(CCc4ccccc43)C2=O)c(C)c1 (stereo not drawn)	0.0	8	-9	18	nt	0.0	5.0	5%
O=C(N/N=C/c1ccncc1)c1cc([N+](=O)[O-])cc([N+](=O)[O-])c1O	-1.1	-3	-6	-3	nt	6.3	2.2	?
Cc1sc2nc(NCCO)[nH]c(=O)c2c1C	-0.2	-17	1	3	9.3	2.2	5.7	1%
CC1(NC(=O)C23CC4CC(CC(C4)C2)C3)CCS(=O)(=O)C1 (stereo not drawn)	0.3	-10	-16	-3	nt	-0.4	4.2	2%
Cc1ccc2[nH]c(C)c(/C=N/Nc3nc4ccccc4s3)c2c1	0.1	61*	2	1	nt	-2.3	?	-5%
Cc1cc(C)n(CC(O)COc2ccc(Cl)cc2Cl)n1 (stereo not drawn)	-0.5	-1	-7	-2	3.0	2.0	0.6	-1%
COc1cc(/C=N/NC(=S)NCC2CCCO2)cc(OC)c1OC (stereo not drawn)	1.6	-10	-5	-18	1.0	-0.6	?	6%
CCOC(=O)c1sc(NC(=O)CSc2nnnn2-c2ccc(C)cc2C)nc1C	0.0	-5	-4	-8	nt	6.5	2.6	-3%&-3%
N#CC(=C=[N-])c1nc2ccccc2nc1-[n+]1cccc(NC(=O)c2ccccc2)c1	-1.0&-0.5	-10&-3	-9&-4	4&-3	1.9	2.4&2.9	6.7&7.3	?
O=c1c2ccccc2nc2n1C(CSc1ccc(Br)cc1)CN2 (stereo not drawn)	0.4	-33	-5	8	nt	-2.6	-0.6	27%
C(=C\c1nnc2c3ccccc3ncn12)/c1ccccc1	-5.5	-22	-1	8	-0.1	-4.9	2.0	-3%
COc1ccc(N(C)S(=O)(=O)c2cccc(C(=O)Nc3nc(C)c(C(C)=O)s3)c2)cc1	-1.2	nt	?	nt	-20	4.7	nt	-6%
CCCCc1nnc(NC(=O)Cn2cnc3ccccc3c2=O)s1	-1.2	3	-3	-3	-2.6	-2.0	-0.1	-4%
Cc1cc(NC(=O)CSc2ccc(-c3ccc(Br)cc3)nn2)no1	-0.3	6	-7	nt	-5.4	5.2	nt	nt
CN1C(=O)C2(C(C#N)=C(N)Oc3c2oc(CO)cc3=O)c2ccccc21 (stereo not drawn)	-0.2	-2	2	-1	0.4	-1.0	4.9	64%
CC(NC(=O)c1cnccn1)c1ccc(S(N)(=O)=O)cc1 (stereo not drawn)	-0.7	8	1	-10	-4.5	5.4	8.1	nt
Cc1cc(Nc2ccccc2)n(C(=O)c2ccc(N)cc2)n1	0.1	0	-16	3	nt	5.2	12	1%
Clc1ccc2[nH]c(-c3ccccc3)cc2c1	-1.6	nt	9	-3	nt	1.0	0.7	-2%
CS(=O)(=O)N(CC(=O)Nc1ccccc1Sc1ccccc1)C1CCCCC1	-0.3	25	-4	1	nt	0.7	-0.6	5%
O=C(CN1C(=O)C2CC=C(Cl)CC2C1=O)NCc1ccccc1 (stereo not drawn)	0.3	-6	-5	-2	nt	0.1	-5.0	?
CCCNC(=O)Nc1nc2ccccc2s1	-2.2	-8	-6	37	0.4	-7.3	2.9	4%
CC(=O)Nc1ccc(S(=O)(=O)N(C)CC(=O)NC2CCCC(C)C2C)cc1 (stereo not drawn)	0.2	-13	1	-13	-5.6	-2.4	-1.0	6%
CC12CCC(=O)N1C(C(=O)Nc1ccc(S(=O)(=O)N3CCCCC3)cc1)CS2 (stereo not drawn)	1.1	-3	-2	7	-6.8	0.0	0.2	-2%
Cc1nc2ccc(NC(=O)N3CCSCC3)cc2nc1C	-0.2	-1	-1	-13	nt	0.6	-4.4	0%
CCOC(=O)/C=C/C(=O)N1CCN(C(=O)/C=C/C(=O)OCC)CC1	1.0	3	-15	6	-1.9	2.1	1.7	5%
CC(C)(C)c1ccc(C(=O)N2CCCCCC2=O)cc1	1.0	5	-1	2	nt	2.1	0.3	12%
Cn1cnnc1SCC(=O)Nc1ccc2nc(SCc3ccccc3F)sc2c1	-0.3	17	-6	1	2.0	0.7	-0.9	0%
C=C(C)CNC(=O)CCc1nnc(Cc2cccc(C(F)(F)F)c2)o1	-1.0	-12	-2	33	-0.6	0.6	0.7	11%
COc1ccc(C/C(N)=N/OC(=O)C(c2ccccc2)c2ccccc2)cc1OC	-0.5	16	-1	4	nt	2.3	1.0	-1%
NNC(=O)c1oc2nc(-c3cccs3)cc(-c3ccco3)c2c1N	0.9	12	21	18	0.3	-3.8	2.4	nt
Cc1cc(C)nc(NC(N)=S)n1	nt	9	nt	-20	-28	nt	?	-7%
COc1cc(OC)c(N(C)S(=O)(=O)c2cccc(C(=O)OCC(=O)c3c[nH]c4ccccc34)c2)cc1Cl	0.3	19	nt	-10	nt	2.8	5.7	nt
CCCc1cc(=O)oc2cc(OCc3ccc(OC)cc3)c(Cl)cc12	-0.5	14	1	9	-3.6	2.8	5.5	15%
CCC(NC(=O)CN1CCN(C(=O)c2cccs2)CC1)c1ccc(C)cc1 (stereo not drawn)	0.1	nt	1	nt	2.2	2.0	nt	-3%
CC(=O)CCS(=O)(=O)c1ccc(NC(C)=O)cc1	0.4	-9	-11	-11	nt	1.3	?	0%
CCN(c1ccccc1)C1(O)C(=O)c2ccccc2C1=O	-0.2	-21	-3	-6	-1.9	2.1	-1.3	8%
O=C1NC(NS(=O)(=O)c2ccccc2)(C(F)(F)F)C(=O)N1c1cccc(Cl)c1 (stereo not drawn)	-0.2	-18	0	-6	-3.2	2.8	3.6	nt
Cc1cccc(C)c1NC(=O)C(c1cccs1)N(Cc1ccco1)C(=O)Cn1nnc2ccccc21 (stereo not drawn)	0.2	3	2	36	nt	-0.7	1.1	3%&-3%
CCSC1=C(C#N)C(c2ccccc2C)CC(=O)N1 (stereo not drawn)	0.9	-15	-13	23	nt	2.9	?	-1%
Cc1csc(NC(=O)CSc2ncnc3c2cnn3-c2ccccc2Cl)n1	-0.2	-1	-11	7	nt	3.9	7.4	-1%
Cc1onc(-c2c(Cl)cccc2Cl)c1NC(=O)NN(C)C	0.9	-3	nt	-1	-1.0	6.9	0.4	nt
CC(C)C(=O)N(Cc1cc2ccccc2[nH]c1=O)C(C)(C)C	-1.4	-8	-3	nt	nt	-5.4	2.0	3%
Cc1ccc2oc(C(F)(F)C(F)F)cc(=O)c2c1	-0.7	-18	-6	-9	1.2	-2.5	26	-11%
